High-throughput results (PubChem)
EPAC2 ant val = Validation qHTS for antagonist of cAMP-regulated guanine nucleotide exchange factor 4 (EPAC2); Rap guanine nucleotide exchange factor 4 (Homo sapiens), Q8WZA2; EPAC2 Rap1B BODIPY-GDP exchange, fluorescence; Potency, µM (series often up to 112 µM), for inactives: at the highest dose activity, negative = inhibition, most hits filed as inhibitors; hit rate 1.7% among 16,000; AID 1645886, 2021; active means well fitted inhibition curve with a large enough effect; inconclusive means small, poorly fitted or top-dose-only effect; inactive means no such curve, though single readings can be large or run the other way;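 further: 100% = activation by cAMP agonist control; nearly all actives have a fitted effect of over 40% in size; the record reuses the description of the EPAC1 agonist screen; inactives centre near -10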
Target sequence (Q8WZA2 whole entry, looked up): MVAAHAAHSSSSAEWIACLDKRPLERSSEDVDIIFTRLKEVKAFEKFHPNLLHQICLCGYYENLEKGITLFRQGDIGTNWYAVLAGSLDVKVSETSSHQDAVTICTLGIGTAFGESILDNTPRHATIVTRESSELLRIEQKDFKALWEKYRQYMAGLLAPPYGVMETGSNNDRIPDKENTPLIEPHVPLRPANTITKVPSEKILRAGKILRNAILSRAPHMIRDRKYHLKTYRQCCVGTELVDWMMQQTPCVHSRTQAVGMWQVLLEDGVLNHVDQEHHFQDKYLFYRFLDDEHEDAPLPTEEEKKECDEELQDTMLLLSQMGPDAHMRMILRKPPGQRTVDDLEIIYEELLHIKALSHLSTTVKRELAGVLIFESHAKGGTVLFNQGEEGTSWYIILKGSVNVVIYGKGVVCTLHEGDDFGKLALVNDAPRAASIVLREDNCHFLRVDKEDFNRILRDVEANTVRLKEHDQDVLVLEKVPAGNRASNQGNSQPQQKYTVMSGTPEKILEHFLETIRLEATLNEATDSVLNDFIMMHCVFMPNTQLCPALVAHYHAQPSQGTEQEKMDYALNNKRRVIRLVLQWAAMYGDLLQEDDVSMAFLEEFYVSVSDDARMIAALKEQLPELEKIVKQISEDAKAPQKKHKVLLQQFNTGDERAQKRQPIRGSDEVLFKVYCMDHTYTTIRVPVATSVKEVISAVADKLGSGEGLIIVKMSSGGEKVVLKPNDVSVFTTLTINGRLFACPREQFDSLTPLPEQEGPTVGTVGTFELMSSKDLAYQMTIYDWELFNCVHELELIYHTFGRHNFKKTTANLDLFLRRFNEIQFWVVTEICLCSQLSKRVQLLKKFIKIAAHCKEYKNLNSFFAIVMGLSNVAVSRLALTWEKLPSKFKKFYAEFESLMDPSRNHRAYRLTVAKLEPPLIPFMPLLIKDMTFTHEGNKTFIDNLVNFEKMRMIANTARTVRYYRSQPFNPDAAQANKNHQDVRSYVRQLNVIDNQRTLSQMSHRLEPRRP
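Normalized against a 6.5 mM cAMP agonist control, compounds were tested on 100 nM EPAC2 exchanging Rap1B-bound BODIPY-GDP (250 nM) for 50 uM GDP. Fluorescence drop (ex 480, em 540 nm) was tracked at room temperature over 30 min at 5-min intervals.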
An asterisk follows results filed as active; ? = inconclusive; & = joins results of further samples; [ ] = remark or other dose. Potency means the concentration at half of the fitted maximal effect. Some of the compounds tested (hit frequency here may not be typical).

SMILES	EPAC2 ant val
Cc1ccccc1CNc1ncnc2c1ncn2C1OC(CO)C(O)C1O (stereo not given)	-2%
O=c1cnc2cnc(Oc3ccccc3)nc2n1C1CC1	-24%
COC(=O)N1CCC2(CCN(Cc3ccccc3OC)CC2)CC1	-8%
O=c1c(-c2ccc(O[C@@H]3O[C@H](CO)[C@@H](O)[C@H](O)[C@H]3O)cc2)coc2cc(O)cc(O)c12	-18%
O=C(c1csnn1)N1CCC2(CC1)CCN(c1ccccn1)CC2	-9%
C#C[C@]1(O)CC[C@H]2[C@@H]3CCC4=C(CCC(=O)C4)[C@H]3CC[C@@]21C	-13%[56.6 µM]
CN(Cc1cnc2ccccn12)C(=O)c1cc(NC(=O)c2ccccc2)cc2ncn(C3CCCC3)c12	-33%
CN1CCC2(CCN3CCc4c(oc5ccccc45)C3C2)N(C)C1=O (stereo not given)	-14%
CN(CC(=O)O)c1ccc(/C=C/c2ccnc3ccccc23)cc1	9%
COC(=O)/C=C/c1ccc2c(c1)S(=O)(=O)N(c1cccc(OC)c1)[C@H]2CC(=O)OC	-26%
c1ccc(C(c2ccccc2)N2CCCC3(CCNCC3)C2)cc1	-23%
CCC(=O)N[C@@H]1c2ccccc2C2(CCN(Cc3cnc(N(C)C)s3)CC2)[C@H]1OC	3%
N#CCCn1c(=O)c(-c2ccc(Cl)cc2)nc2cnc(Oc3ccccc3)nc21	-7%
O=C(c1cn(C2CCCN(Cc3cc(Cl)ccc3O)C2)nn1)N1CCCCC1 (stereo not given)	-26%
NC(Cc1cc(I)c(Oc2cc(I)c(O)c(I)c2)c(I)c1)C(=O)O (stereo not given)	-10%
COc1cc2ncc(-c3ccccc3)nc2cc1OC	-18%
O=C(Nc1ccccc1)[C@@]12C[C@@H]1/C(=N/O)c1ccccc1O2	?
Cc1ccc(C(=O)Nc2cccc(-c3nc(CNC(=O)c4ccc(F)cc4Cl)c(C)o3)c2)s1	-10%
C=NCc1cc2c(OC[C@@H](O)CNC(C)(C)C)cccc2[nH]1	-11%
Cc1cc(C(=O)NCC2CCC3(CCN(Cc4ccc(F)cc4)CC3)O2)n(C)n1 (stereo not given)	1%
O=c1[nH]c2cc(Cl)ccc2c(O)c1-c1ccc(Oc2ccccc2)cc1	-12%
CS(=O)(=O)N1CCC2(CCN(Cc3ccc(C#N)cc3)CC2)CC1	-2%
COc1cc(CN2CCOc3ccc(CN4CCC(O)(c5cccnc5)CC4)cc3C2)cc(OC)c1	-1%
CCN(CC)CCOCCOC(=O)C(CC)(CC)c1ccccc1	-12%
c1cn(-c2cc(-c3ccc4c(c3)OCO4)ncn2)cn1	?
SMILES	EPAC2 ant val
COc1cc(/C=C/C(=O)/C=C(O)/C=C/c2ccc(O)c(OC)c2)ccc1O	152%&96%[activator]
Cc1ccc2cc(CNC(C)CO)c(N3CCC(O)CC3)nc2c1 (stereo not given)	-4%
O=C(C[n+]1ccc2ccccc2c1)c1ccc(F)cc1	?
CC(=O)NCCNc1nc(-c2ccccc2C)nc2ccccc12	-16%
Cc1ccc2c(Cl)cc(Cl)c(O)c2n1	-14%&9%
COc1ccc(CNC(=O)[C@@H]2CC=C[C@@H]3CCN(Cc4ccccc4)C(=O)[C@@H]32)cc1	-14%
O=C(C[n+]1ccccc1Cl)c1cccc([N+](=O)[O-])c1	3%
COc1cc2c(C=O)c3c4c(cc(OC)c(OC)c4c2cc1OC)CCN3C	48%[activator]
c1ccc2cc(C3=NCCN3)ncc2c1	-13%
CCCCCCCCCCCCCC(=O)N[C@H](C)[C@@H](O)c1ccccc1	-29%[11.4 µM]
Cc1ccc2nc(/C=C/c3ccc(N(C)C)cc3)ccc2c1	-4%
CC(C)(O)[C@@H]1CCC[N+]2(C)CCCC[C@H]12 (stereo not given in full)	18%
COCC1CCCN(Cc2ccc3c(c2)CN(C(=O)c2ccc(OC)nc2OC)CCO3)C1 (stereo not given)	-2%
O=C(O)c1ccc(OCCn2ccnc2)cc1	-6%
COc1cc(COc2cc(N)c(Cl)cc2C(=O)CCC2CCN(CCNS(C)(=O)=O)CC2)cc(OC)c1	-19%&-5%
COc1ccc(NC(=O)N2CC3(CCNCC3)C2)cc1	-19%
O=c1cnc2cnc(N3CCNCC3)nc2n1Cc1cccs1	-17%
CN=C(NC#N)NCCSCc1csc(N=C(N)N)n1	10%&-12%
O=c1cnc2cnc(Oc3cccc(Cl)c3)nc2n1C1CC1	?
Cc1c(C(=O)N2CCCC2)sc2ncnc(NCCc3ccccn3)c12	7%
CCC(/C=C/C(C)C1CCC2C3CCC4=CC(=O)CC[C@@]4(C)C3CC[C@@]12C)C(C)C (stereo not given in full)	-12%
O=c1cnc2cnc(N3CCOCC3)nc2n1C[C@H]1CCCO1	-10%
COc1ccc(/C=C/C(=O)c2ccc(C)s2)cc1	-27%
COC(=O)[C@@H]1[C@H]2SC(C)(C)[C@H](C(=O)OC)N2C(=O)N1Cc1cc2ccccc2n1S(=O)(=O)c1ccccc1	11%
CC1(C)CC[C@]2(C(=O)O)CC[C@@]3(C)C(=CCC4[C@@]5(C)CCC(O)C(C)(C)C5CC[C@@]43C)C2C1 (stereo not given in full)	-14%

Continued (2 carried over from the part before).
SMILES	EPAC2 ant val
COC(=O)[C@@H]1[C@H]2SC(C)(C)[C@H](C(=O)OC)N2C(=O)N1Cc1cc2ccccc2n1S(=O)(=O)c1ccccc1	11%
CC1(C)CC[C@]2(C(=O)O)CC[C@@]3(C)C(=CCC4[C@@]5(C)CCC(O)C(C)(C)C5CC[C@@]43C)C2C1 (stereo not given in full)	-14%
CCCC(CCC)C(N)=O	-9%
COc1ccc(-c2oc3cc(OC)c(OC(C)=O)c(OC)c3c(=O)c2OC)cc1OC(C)=O	-10%
CSc1ccc(C(=O)N2CCc3c(cnc(C)c3CNC(=O)c3cncs3)C2)cc1	-16%
CSc1ncccc1C(=O)NCC1Cc2cc(F)cc(-c3cncnc3)c2O1 (stereo not given)	10%
COC(=O)c1c(OCc2ccccn2)cc(=O)n2c1CCN(Cc1cccc(C(F)(F)F)c1)CC2	-9%
c1ccc2c(c1)CC(N1CCN(c3cccc4c3OCCO4)CC1)C2	?
C[C@@H]1OC(OC2CC[C@@]3(C)C(CC[C@@]4(C)C3CC=C3C5CC(C)(C)CC[C@]5(C(=O)OC5OCC(O)[C@@H](O)[C@@H]5OC5O[C@@H](C)[C@H](O[C@H]6OC(CO)C(O)C(O)C6O)C(O)C5O)C(O)C[C@@]34C)C2(C)C)C(O)C(O)[C@H]1OC1OCC(O)C(O)[C@H]1O (stereo not given in full)	-1%
CC(=O)Oc1cc2c(s1)CCN(C(C(=O)C1CC1)c1ccccc1F)C2 (stereo not given)	14%
CC1=CC(=O)CC(C)(C)C1(O)/C=C/C(C)=C/C(=O)O (stereo not given)	13%
O=P(O)(O)C(O)c1ccc2ccccc2c1 (stereo not given)	-12%
CN(C)c1ncc2ncc(=O)n(Cc3cccs3)c2n1	45µM*
Nc1nc(Nc2ccccc2)nc2c1ncn2[C@@H]1O[C@H](CO)[C@@H](O)[C@H]1O	-14%
Cc1ccc(CN2C[C@H](Sc3ccccn3)C[C@H]2C(=O)Nc2ccc3sc(C)nc3c2)cc1	-15%
COc1ccccc1CN1CCC2(CC1)CCN(C(=O)c1ccncc1)CC2	-13%
COc1cc2c(Cc3c4c5c(cc(OC)c(OC)c5c5c(OC)c(OC)ccc35)CCN4C)c3c4c(cc(OC)c(OC)c4c2cc1OC)CCN3C	77%[activator]
CCCCCCCC(=O)O	-8%
C[C@@H]1CN(Cc2ccc3c(c2)CN(Cc2coc4ccccc4c2=O)CCO3)C[C@H](C)O1	-2%
COc1cc(O)c2c(=O)cc(C)oc2c1CC=C(C)C	32µM*
CC1(C(=O)O)NCCc2cc(O)c(O)cc21 (stereo not given)	-2%
CCNc1ncc2nc(-c3cc(F)cc(F)c3)c(=O)n(CCC#N)c2n1	-37%
O=C(c1ccco1)N1CCC2(CCCN(c3ccncc3)C2)CC1	-9%
CCOC(=O)[C@@]12C[C@@H]1/C(=N/O)c1ccccc1O2	?
O=S(=O)(c1ccccc1)N1CCC2(CC1)CN(Cc1nccs1)C2	-23%
COc1ccc(CN2CC[C@H]3C=CC[C@@H](C(=O)Nc4ccc(Cl)c(C(F)(F)F)c4)[C@H]3C2=O)cc1OC	?
O=C(N[C@H]1CCC(=O)N([C@H](CSc2ccccc2)Cc2ccccc2)CC1)OCc1ccccc1	-25%
SMILES	EPAC2 ant val
COc1cc2cc[n+]3cc4c(OC)c(OC)ccc4cc3c2cc1OC	-8%
Cc1noc(C)c1C(=O)N1CCC2(CCCN(Cc3ccccc3)C2)CC1	-25%
C[N+]1(CC(=O)c2cccc([N+](=O)[O-])c2)CCOCC1	17%
FC(F)(F)c1cc(CN2CC[C@@]3(CCCNC3)C2)cc(C(F)(F)F)c1	-7%
CCOC(=O)C1OC1C(=O)NC(CC(C)C)C(=O)NCCC(C)C (stereo not given)	4%[151 µM]
NCCC(=O)N[C@H](Cc1cnc[nH]1)C(=O)O	0%
Cc1cn([C@H]2C=C[C@@H](CO)O2)c(=O)[nH]c1=O	-19%&-21%
CN(C)c1ncc2nc(-c3ccccc3)c(=O)n(CCC#N)c2n1	-1%
NCCCCCCNS(=O)(=O)c1cccc2c(Cl)cccc12	-19%
CC1NC(C(=O)O)Cc2c1[nH]c1ccccc21 (stereo not given)	2%
CC(C)c1c(C(=O)NCCN2CCOCC2)cnn1-c1nccc(-c2cccs2)n1	0%
C[N+](C)(C)CCC(=O)c1cccc2ccccc12	-27%
COc1cc(-c2cc(=O)c3c(O)c(OC)c(OC)c(OC)c3o2)cc(OC)c1OC	-17%
CCOc1nc2cccc(C(=O)O)c2n1Cc1ccc(-c2ccccc2-c2nn[nH]n2)cc1	-2%
COc1cc2c(cc1O)C(Cc1ccc(O)cc1)N(C)CC2 (stereo not given)	-8%
COc1cc(NS(=O)(=O)c2ccc(N)cc2)nc(OC)n1	1%[56.6 µM]
NS(=O)(=O)c1cc(C(=O)O)cc(N2CCCC2)c1Oc1ccccc1	7%[56.6 µM]
CCC(=O)N[C@@H]1Cc2ccccc2[C@@H](c2ccccc2)C1	?
COC(=O)N1CCC2(CC1)CN(c1ccccc1)C2	?
NC(N)=NC(=O)c1nc(Cl)c(N2CCCCCC2)nc1N	-22%&-19%
Cc1cnc(CNc2ccnc(-c3ccoc3)n2)cn1	-3%
COC(=O)c1ccc(C(=O)N2CCc3c(C(=O)NC(C)c4ccco4)c(OC)cc(=O)n3CC2)cc1 (stereo not given)	17%
O=c1c(O)c(-c2ccc(O)c(O)c2)oc2c(OC[C@@H]3O[C@@H](O)[C@@H](O)[C@H](O)[C@H]3O)c(O)cc(O)c12	33%[activator]
COC(=O)N1CCC[C@@]2(CCN(c3ncccn3)C2)C1	-8%
COc1cccc(CN(CC(=O)NCc2ccccc2)S(=O)(=O)CCl)c1	?
SMILES	EPAC2 ant val
COc1cccc(-c2nc(NC3CC3)c3ccccc3n2)c1	-21%
O=C(NC1CCCCC1)[C@@H]1CC=C[C@@H]2CCN(C3CCCCC3)C(=O)[C@@H]21	-5%
CCCCC/C=C\C/C=C\CCCCCCCC(N)=O	-8%[11.4 µM]
CS(=O)(=O)NC(=O)CCC/C=C\C[C@H]1C(=O)C[C@@H](O)[C@@H]1/C=C/[C@H](O)COc1ccccc1	26%
Cc1cn([C@H]2C[C@H](F)[C@@H](CO)O2)c(=O)[nH]c1=O	-9%
O=C(O)Cc1ccc(OCCNC[C@H](O)c2ccccc2)cc1	19%
NC[C@@H]1CC[C@@H](N)[C@@H](O[C@H]2[C@H](O)[C@@H](O[C@H]3O[C@H](CO)[C@@H](O)[C@H](N)[C@H]3O)[C@H](N)C[C@@H]2N)O1	12%
COc1ccc(CNc2ncnc3ccc(-c4ccccc4C#N)cc23)c(OC)c1	-17%
Cc1noc(C)c1C(=O)N1CCC2(CCN(Cc3ccc(C#N)cc3)CC2)CC1	-21%
CC1(C)S[C@@H]2[C@H](N=CN3CCCCCC3)C(=O)N2[C@H]1C(=O)O	-7%
CC(C)(CO)[C@@H](O)C(=O)NCCC(=O)NCCSSCCNC(=O)CCNC(=O)[C@H](O)C(C)(C)CO	2%
O=C(NCCN1CCOCC1)c1cnn(-c2nccc(-c3cccs3)n2)c1C1CC1	11%
Oc1cccc(O)c1O	9%

Of the compounds above, 13 contain a COOH group:
SMILES	EPAC2 ant val
CN(CC(=O)O)c1ccc(/C=C/c2ccnc3ccccc23)cc1	9%
NC(Cc1cc(I)c(Oc2cc(I)c(O)c(I)c2)c(I)c1)C(=O)O (stereo not given)	-10%
O=C(O)c1ccc(OCCn2ccnc2)cc1	-6%
CC1(C)CC[C@]2(C(=O)O)CC[C@@]3(C)C(=CCC4[C@@]5(C)CCC(O)C(C)(C)C5CC[C@@]43C)C2C1 (stereo not given in full)	-14%
CC1=CC(=O)CC(C)(C)C1(O)/C=C/C(C)=C/C(=O)O (stereo not given)	13%
CCCCCCCC(=O)O	-8%
CC1(C(=O)O)NCCc2cc(O)c(O)cc21 (stereo not given)	-2%
NCCC(=O)N[C@H](Cc1cnc[nH]1)C(=O)O	0%
CC1NC(C(=O)O)Cc2c1[nH]c1ccccc21 (stereo not given)	2%
CCOc1nc2cccc(C(=O)O)c2n1Cc1ccc(-c2ccccc2-c2nn[nH]n2)cc1	-2%
NS(=O)(=O)c1cc(C(=O)O)cc(N2CCCC2)c1Oc1ccccc1	7%[56.6 µM]
O=C(O)Cc1ccc(OCCNC[C@H](O)c2ccccc2)cc1	19%
CC1(C)S[C@@H]2[C@H](N=CN3CCCCCC3)C(=O)N2[C@H]1C(=O)O	-7%
